NPYLR7 agonist = activates Aedes aegypti NPYLR7 receptor. HEK293T NPYLR7/Galpha15, GCaMP6s calcium fluorescence. activation, % at 10 µM. 270,000 compounds, 0.15% hits; in the data active = activation above about 40%;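 note: 0% = vehicle and 100% = reference agonist at the receptor; some compounds past the cut are filed as inactive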
NPYLR7 agonist max-min = recorded beside NPYLR7 agonist, whose call it bears; activation, %; measured here: Max-Min RFU normalised activation; some inactives read as strong as hits;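 span of the calcium signal over five minutes; 0% = vehicle and 100% = native peptide agonist; compound fluorescence can raise it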
* marks the source's active call; other numbers are inactive results; & = joins results of further samples. An excerpt, so the mix of outcomes need not match the whole.

SMILES	NPYLR7 agonist	NPYLR7 agonist max-min
Cc1ccc2c(c1)CC(C(=O)N1CCCn3cncc3C1)N2 (stereo not drawn)	-4	-7
COC(=O)CCCC(=O)NC(C)c1cnc(-c2ccncc2)nc1C (stereo not drawn)	15	15
CC1(C(=O)NCCc2cccs2)CCN1CC1CCOC1 (stereo not drawn)	-6	-5
Cc1ccc(CNC(=O)NCCNc2ccccc2[N+](=O)[O-])cc1	0	3
Cc1cc(C)n(C(=O)c2sccc2S(=O)(=O)N(C)c2ccc(Cl)cc2)n1	0	-5
CN1CCN(N=Cc2cc(Br)ccc2O)CC1	4	3
O=C(Cc1ncccn1)N1CCC(c2cc(Cc3ccccc3)[nH]n2)CC1	-3	-5
Cn1c(=O)c2c(nc3n2CC(c2ccc(F)cc2)=NN3Cc2ccccc2F)n(C)c1=O	-6	-8
CCCn1c(=O)c2c(nc3n(-c4ccc(Br)cc4)c(C)cn23)n(C)c1=O	7	6
Cc1ccc(Cl)c(Oc2cc(N3CCN(C(=O)c4ccc(F)cc4)CC3)ncn2)c1	-9	-9
CCCn1c(C2CC(=O)N(CCc3ccccc3)C2)nc2ccccc21 (stereo not drawn)	27	25
Cc1sc2ncnc(N3CCC(C(=O)Nc4nn5cnnc5s4)CC3)c2c1C	7	11
COc1ccc(OC)c(NC(=O)Cn2ncn3nc4c(c3c2=O)CCCC4)c1	-2	-5
Cc1csc(=O)n1CCCC(=O)NC1CCCc2ccccc21 (stereo not drawn)	6	3
S=c1[nH]nc2c3ccccc3c(-c3ccccc3)nn12	-1	8
Cc1ccc(-c2ccc(=O)n(CCCNC(=O)Nc3ccccc3C(F)(F)F)n2)cc1	3	2
COC(C(=O)Nc1ccnn1C1CCN(C(=O)C(=O)CC(C)C)CC1)c1ccccc1 (stereo not drawn)	-3	-4
CN1CC2(CCN(C(=O)CCS(=O)(=O)c3ccccc3)C2)OC1=O (stereo not drawn)	5	0
O=C(Nc1ccc(Cl)c(C(F)(F)F)c1)N1CCN(C(=O)c2cc(-c3ccccc3)nc3ccccc23)CC1	-8	-12
O=[N+]([O-])/C=C/c1cccs1	3	2
CC1C(=O)N(C)CCN1C(=O)Cc1ccc(N2CCNC2=O)cc1 (stereo not drawn)	7	5
Cn1ccc(C(=O)N(CCN2CCOCC2)c2ccccc2)c1	-3	368
CCCOc1cccn2c(N(C)C(C)=O)c(CC)nc12	11	-3
COc1cccc(CNC(=O)CCC2CCCN(C(=O)CCc3cc(C)cc(C)c3)C2)c1 (stereo not drawn)	6	5
Cc1ccc(C(C)CCN2CCC(Oc3ccccc3C(=O)N3CCCCC3)CC2)o1 (stereo not drawn)	10	-4

The list continues.
SMILES	NPYLR7 agonist	NPYLR7 agonist max-min
CN1CCCC2(CCN(C(=O)c3nc4ccccc4c(=O)[nH]3)C2)C1=O (stereo not drawn)	8	5
COc1ccc(OC2OC3COC(c4ccccc4)OC3C(O)C2NC(C)=O)cc1 (stereo not drawn)	7	10
C=CCN1CCN(c2cccc(Br)c2)C(=O)C1C (stereo not drawn)	0	7
CCCOC(=NCCOC)NC(=O)c1cccc(C)c1	-6	5
COc1ccc(OC2CCN(C(C)=O)CC2)c(C(=O)NC(C)Cc2cccs2)c1 (stereo not drawn)	4	0
Cc1c(-c2cc3c(s2)CCC3)nn(-c2ccccc2)c1N	-1	-1
C[C@H](NC(=O)Cc1cc(F)cc(F)c1)C(=O)N[C@@H]1C(=O)N(C)c2ccccc2-c2ccccc21	-4	-10
NC(=O)c1nc(-c2ccco2)nc2c1[nH]c(=O)n2-c1ccc2c(c1)OCO2	-6	-7
CCC(C)NC(=O)C1CCC(c2ccc(F)cc2)N(C(=O)c2ccccc2)C1 (stereo not drawn)	5	2
Cc1ccc(C)c(OC(C)C(=O)NCC2(Cn3cccn3)CC2)c1 (stereo not drawn)	3	0
O=C1OC(/C=C/c2cccc([N+](=O)[O-])c2)=NC/1=C\c1coc2ccccc2c1=O	6	6
Cc1ccccc1CC(=O)N1CCC(n2nc(-c3ccccc3)cc2-c2ccccc2)CC1	25	13
CCCCC(CC)CNc1ncnc2sccc12 (stereo not drawn)	17	13
COc1cc(CNC(=O)CCC2CCCCC2)ccc1OCC1CCCO1 (stereo not drawn)	-8	-9
COc1ccc(-c2[nH]ncc2CN(C)CCn2nc(C)cc2C)cc1F	20&2	12&-3
COc1cccc(-c2cc(-c3ccc(C(=O)NCCCOC(C)C)cc3)[nH]n2)c1	26	21
COc1ccc(OC)c(S(=O)(=O)Nc2ccccc2C(=O)NC2CCCCC2)c1	1	6
COc1ccc(OC)c(-c2cccc(-c3ccc(NC(=O)c4ccc(F)c(Cl)c4)cc3)n2)c1	-6	-10
CC(C)N1C(=O)CC(NC(=O)c2cc(Cl)sc2Cl)C1=O (stereo not drawn)	4	2
O=C(c1cccs1)N1CCN(C(C(=O)N2CCOCC2)C2CCCC2)CC1 (stereo not drawn)	-3	0
CN(CCC#N)C(=O)COC(=O)CN1C(=O)NC2(CCCC2)C1=O	3	0
O=C(Cc1ccncc1)NCc1cccnc1Oc1ccccc1	-2	-7
CC1=CSC2=NS(=O)(=O)CCN12	1	0
Cn1cccc(NS(=O)(=O)c2cccc(Br)c2)c1=O	0	-11
Cc1ccc(C(=O)O)cc1N1C(=O)c2cccc3c([N+](=O)[O-])ccc(c23)C1=O	-8	-10

The list continues:
SMILES	NPYLR7 agonist	NPYLR7 agonist max-min
Cc1ccc(OCC2CN(C(=O)c3cccnc3Cl)CCO2)cc1 (stereo not drawn)	4	10
CCN1CCN(CC(=O)N2CCCC(Nc3ccc(C(C)C)cc3)C2)CC1 (stereo not drawn)	4&14	0&12
CCC(C)(C)C1CCc2c(sc(NC(=O)c3c(-c4ccccc4Cl)noc3C)c2C#N)C1 (stereo not drawn)	4	2
COCc1ccc(CN2CCC(N3CCC(C(=O)NCC4CCCO4)CC3)CC2)o1 (stereo not drawn)	9	1
O=S(=O)(CCO)Cc1cc(Br)ccc1Cl	-15&-6	-18&-7
CC(=O)C1=C(C)NC2=C(C(=O)CC(C)(C)C2)C1C (stereo not drawn)	-1	-1
Cc1ccsc1C=CC(=O)O	-5	-6
C=CCN1C(=O)C(=Cc2ccco2)SC1=S	-2	-6
O=c1[nH]c(SCc2ccccc2)nc2ccccc12	0	-1
Cc1cccnc1NC(=O)CNC(=O)c1ccc(-c2ccccc2)cc1	3	0
O=S1(=O)c2cccc3cccc(c23)N1Cc1ccccn1	1	-1
S=C(N=P(c1ccccc1)(N1CCOCC1)N1CCOCC1)N1CCCCC1	4	0
CC(CNC(=O)/C=C(/c1ccc(Cl)cc1)C(F)(F)F)CN1CCN(C)CC1 (stereo not drawn)	-7	-9
CCOCCCn1c(SCc2cc(C(F)(F)F)ccc2F)nc2cc(C(=O)OCC)ccc21	-6	-6
O=C(c1ccc(Cl)cc1)N1CCc2cc(S(=O)(=O)N3CCCC3)ccc21	2	10
CCOC(=O)C1=C(C)N(CCOC)C(=O)NC1c1c(F)cccc1F (stereo not drawn)	7	9
CCN(C)Cc1cnc(S(=O)(=O)Cc2ccccc2)n1CC(C)C	12	6
Cc1[nH]nc(-c2ccc(O)cc2O)c1-c1nc2ccccc2s1	-7	-8
O=C(Nc1cccc(S(=O)(=O)Nc2ccc(Cl)cc2)c1)c1ccoc1	-12	-12
O=C(Cn1cnc2c(nnn2Cc2ccc(F)cc2)c1=O)NCc1ccc2c(c1)OCO2	15	19
O=C(CSc1ccc(-c2ccc(-n3ccnc3)cc2)nn1)NCc1ccc(Cl)cc1	-7	-10
CC(=O)N1CCc2cc(C(=O)N(Cc3ccccc3)C(C)CN3CCOCC3)ccc21 (stereo not drawn)	0	0
COc1ccc(Oc2cc(N3CCCCCC3)ncn2)cc1	3	9
CC(C)(C)c1cc(NS(=O)(=O)/C=C/c2ccc(Br)cc2)on1	-5	-5
CCCCC(CC)c1nnc(NC(=O)COc2ccccc2)s1 (stereo not drawn)	6	6

19 compounds already listed, arranged by formula weight, lowest first:
SMILES	NPYLR7 agonist	NPYLR7 agonist max-min
Cc1ccsc1C=CC(=O)O	-5	-6
C=CCN1C(=O)C(=Cc2ccco2)SC1=S	-2	-6
O=c1[nH]c(SCc2ccccc2)nc2ccccc12	0	-1
COc1ccc(Oc2cc(N3CCCCCC3)ncn2)cc1	3	9
O=S(=O)(CCO)Cc1cc(Br)ccc1Cl	-15&-6	-18&-7
CCCCC(CC)c1nnc(NC(=O)COc2ccccc2)s1 (stereo not drawn)	6	6
Cc1cccnc1NC(=O)CNC(=O)c1ccc(-c2ccccc2)cc1	3	0
Cc1ccc(OCC2CN(C(=O)c3cccnc3Cl)CCO2)cc1 (stereo not drawn)	4	10
CCN(C)Cc1cnc(S(=O)(=O)Cc2ccccc2)n1CC(C)C	12	6
CCN1CCN(CC(=O)N2CCCC(Nc3ccc(C(C)C)cc3)C2)CC1 (stereo not drawn)	4&14	0&12
O=C(Nc1cccc(S(=O)(=O)Nc2ccc(Cl)cc2)c1)c1ccoc1	-12	-12
CC(C)(C)c1cc(NS(=O)(=O)/C=C/c2ccc(Br)cc2)on1	-5	-5
O=C(c1ccc(Cl)cc1)N1CCc2cc(S(=O)(=O)N3CCCC3)ccc21	2	10
CC(CNC(=O)/C=C(/c1ccc(Cl)cc1)C(F)(F)F)CN1CCN(C)CC1 (stereo not drawn)	-7	-9
COCc1ccc(CN2CCC(N3CCC(C(=O)NCC4CCCO4)CC3)CC2)o1 (stereo not drawn)	9	1
CC(=O)N1CCc2cc(C(=O)N(Cc3ccccc3)C(C)CN3CCOCC3)ccc21 (stereo not drawn)	0	0
O=C(CSc1ccc(-c2ccc(-n3ccnc3)cc2)nn1)NCc1ccc(Cl)cc1	-7	-10
CCC(C)(C)C1CCc2c(sc(NC(=O)c3c(-c4ccccc4Cl)noc3C)c2C#N)C1 (stereo not drawn)	4	2
CCOCCCn1c(SCc2cc(C(F)(F)F)ccc2F)nc2cc(C(=O)OCC)ccc21	-6	-6

Next part.
SMILES	NPYLR7 agonist	NPYLR7 agonist max-min
O=C(C(Cl)Cl)N1CCN(c2nccc(-c3ccc(Oc4ccccc4)cc3)n2)CC1	18	16
CCCn1c(N2CCN(Cc3ccc(Br)cc3)CC2)nc2c1c(=O)[nH]c(=O)n2C	4	1
O=C(c1cccc(-n2cccn2)c1)N1CCCC2(C1)C(=O)Nc1ccccc12 (stereo not drawn)	1	1
CCOC(=O)N(C)c1c(CC)nc2ccc(C(=O)N(C)Cc3ccccc3)cn12	18	13
Cc1ccc2c(c1)CCCN2C(=O)CN1[C@@H]2CC[C@H]1CC(O)C2 (stereo partly drawn)	-1	0
CCCCC(O)CN(Cc1ccco1)Cc1c(C)nn(-c2ccccc2)c1Oc1ccccc1OC (stereo not drawn)	8	11
Cc1ccccc1C(=O)N[C@@H]1CCCCC1NC(=O)C1CCN(S(=O)(=O)c2ccc3ccccc3c2)CC1 (stereo partly drawn)	21	15
CCOCCn1c(=O)c2c(nc3n(C(C)CC)c(C)c(C)n23)n(C)c1=O (stereo not drawn)	-12	-13
CCN(CC)CCN(C(=O)c1cc(C)n(C)n1)c1nc2c(F)cccc2s1	2	0
COc1cccnc1C(=O)N1CCC(O)(C(=O)O)CC1	4	1
CN(Cn1nc(-c2ccc3c(c2)OCO3)oc1=S)C1CCCCC1	19	18
CCOC(=O)N(C)c1c(CC)nc2c(OCc3ccccc3OC)cccn12	0	-9
O=C(Nc1cnc[nH]1)c1cccnc1Nc1cc(Cl)cc(Cl)c1	3	2
O=C(NCC1CCCO1)C1CCN(S(=O)(=O)N2CCOCC2)CC1 (stereo not drawn)	2	2
CCCNc1cc(-c2ccccc2)nc2c(-c3ccccc3)cnn12	-6	-7
CN(Cc1cscn1)C(=O)NCCN1CCN(Cc2ccccc2)CC1	3	1
CC1Oc2c(C(=O)NC3CCN(C(=O)c4ccco4)CC3)cccc2C1C (stereo not drawn)	0	0
Nc1nc(-c2ccc(Cl)s2)cs1	9	4
Cc1ccc(S(=O)(=O)NC2COc3ccccc3C2)c(C)c1 (stereo not drawn)	0	-1
NC(=O)C1CCN(C(=O)COC(=O)Cc2cccc(F)c2)CC1	2	20
CN(CCCC1CCCC1)C(=O)c1cnon1	0	-1
COC(=O)c1c(N)sc(C(=O)Nc2ccc(C)cc2C)c1C	-3	-7
Cn1ccnc1SCC(=O)c1cc(I)c(O)c(I)c1	-1	-1
CC(C#N)(NC(=O)CN(CCc1cccc(F)c1)C1CC1)C1CC1 (stereo not drawn)	2	1
Cc1cc(OC(=O)N2CCOCC2)cc2c1C(=O)/C(=C/c1ccncc1)O2	10	9

Next section:
SMILES	NPYLR7 agonist	NPYLR7 agonist max-min
COc1cccc(Cn2cccc2CN(Cc2ccccc2)C(=O)CN(CC(C)C)C(=O)COc2ccccc2)c1	1	11
CNc1cc(-c2ccc(O)cc2C)nc2ccnn12	1	-1
C/C(=C\c1ccco1)C1CC(=O)Nc2cc3[nH]ncc3cc21 (stereo not drawn)	0	2
O=C(NC12CC3CC(CC(C3)C1)C2)c1ccc2nc(-c3ccccc3)c(-c3ccccc3)nc2c1	-5	-13
COC(=O)CCC(=O)N(Cc1nc2cc(C)ccc2o1)Cc1cc(F)ccc1F	4	2
COCCn1cc(C(=O)N2CCN(C(=O)c3ccc(C)cc3)CC2)c2nn(-c3ccccc3)c(=O)c-2c1	1	-1
CCOC(=O)C1=C(CN2CC(C)Sc3ccccc32)NC(=O)NC1c1ccco1 (stereo not drawn)	8	3
CC1=C(C(=O)OC(C)C)C(c2cccc3ccccc23)C2=C(CC(c3ccc(Cl)cc3)CC2=O)N1 (stereo not drawn)	2	5
Cc1ccc(-n2c(C)nnc2SCc2ccc(C(=O)NCc3ccco3)cc2)cc1	23	15
CCc1nc(CCNC(=O)NCC2CCCN(C(C)C)C2)cs1 (stereo not drawn)	-7	-6
CCn1nc(CC(C)C)cc1C(=O)N1CCc2c(nc[nH]c2=O)C1	4	-1
COc1ccc(/C=C2/SC(N)=NC2=O)cc1	-12	-15
COc1cc(/C=C2/SC(=S)N(CC(=O)O)C2=O)ccc1OCc1ccc(Br)cc1	-7	-10
CC1c2cccn2CCN1S(=O)(=O)c1ccc(F)cc1F (stereo not drawn)	-1	-4
CCC(NC(=O)CCn1c(C)csc1=O)c1ccc(Cl)cc1 (stereo not drawn)	1	0
